# rRNA inh HTS: inhibitors of bacterial rRNA selective over humanized ribosomes | GFP signal change (wild-type ribosome), % (no concentration beside the values) | 350,000 compounds, 1.6% hits | E. coli WT GFP vs humanized-ribosome RFP mutants, fluorescence, 24 h; active compounds read low; DMSO median 0, no signal -100;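 active = significant combined selectivity score with lowered wild-type GFP, culture density cut under 30%, mutant RFP and density less affected; inactive = any of these conditions unmet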; also: one replicate is shown; some compounds called inactive have numbers as strong as hits
# MLL AF4-AF9 inh: blocks AF4 peptide binding to human AF9 | inhibition, % at 10 µM | AlphaScreen, biotin-AF4 peptide binding to FLAG-AF9 | P42568 | 350,000 compounds, 0.47% hits;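 active = every replicate reaching a set inhibition limit, whatever the replicate mean, cut at about 25% in these data; inconclusive = mean inhibition reaches that limit but some replicates miss it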;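 also: 0% = plate neutral control median and 100% = total signal loss; the record names both 10 and 1 µM as test concentration; the first replicate is given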
# FGF22 binding: FGF22 (human) thermal shift binding | Q9HCT0 | recombinant FGF22 thermal shift, SYPRO orange fluorescence; percent of sucrose octasulfate shift, DMSO zero | calls only at 9.99 µM | 340,000 compounds, 1.5% hits | AID 651658;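 active = melting point raised past a set limit in the mean and every replicate; inconclusive = no clear call; three in four hits are not shown here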
# Target sequence (Q9HCT0 whole entry, looked up): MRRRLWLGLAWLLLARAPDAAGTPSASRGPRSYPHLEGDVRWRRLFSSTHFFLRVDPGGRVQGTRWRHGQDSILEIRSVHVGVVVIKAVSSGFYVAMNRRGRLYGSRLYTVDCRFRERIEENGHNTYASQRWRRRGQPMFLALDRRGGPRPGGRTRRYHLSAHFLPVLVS
# E coli growth: blocks Escherichia coli growth. OD600, 23 h; active compounds read low. OD600 absorbance (concentration not given with the values). 330,000 compounds, 0.21% hits;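 active = OD600 absorbance below the run mean of sample wells minus 3.6 SD, in any replicate, cut at about 0.56 in these data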;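 also: stock transfer was 300 nL into about 60 µL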
# HNF4A DNA FP: change in binding of human HNF4 alpha to DNA | AID 1224865 | P41235 | 360,000 compounds, 0.3% hits | activity change, % at 10 µM | HNF4a-FITC DNA binding, fluorescence polarization, 1 h; in the data active = activity change above about 30%, passing the limit was not always enough;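 also: controls were the assay level and a saturating level of protein; the project sought stronger binding though the title names inhibitors; some compounds called inactive have numbers as strong as hits; positive values seem to mean higher polarization but the record does not say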
# Target sequence (P41235 whole entry, looked up): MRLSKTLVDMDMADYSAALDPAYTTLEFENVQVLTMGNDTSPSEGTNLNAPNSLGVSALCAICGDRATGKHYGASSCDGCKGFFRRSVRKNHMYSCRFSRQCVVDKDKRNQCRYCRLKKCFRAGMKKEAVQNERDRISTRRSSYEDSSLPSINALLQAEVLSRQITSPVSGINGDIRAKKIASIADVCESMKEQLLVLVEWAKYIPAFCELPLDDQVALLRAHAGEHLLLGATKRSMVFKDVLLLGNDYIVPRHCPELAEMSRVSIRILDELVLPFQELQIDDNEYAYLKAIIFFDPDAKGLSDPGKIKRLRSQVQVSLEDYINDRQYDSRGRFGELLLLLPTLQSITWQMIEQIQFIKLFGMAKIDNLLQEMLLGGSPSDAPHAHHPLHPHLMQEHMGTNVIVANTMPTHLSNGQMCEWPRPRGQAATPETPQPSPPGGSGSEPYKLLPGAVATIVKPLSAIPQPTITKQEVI
# ALR inh: blocks human ALR sulfhydryl oxidase activity | P55789 | purified ALR, DTT oxidation, H2O2 HRP-luminol luminescence | inhibition, % (test concentration not listed) | 290,000 compounds, 3.8% hits | AID 485317;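 active = mean and each replicate at 75% or more; inconclusive = only one of the two met; inactive = neither met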;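 also: stock transfer was 7.5 nL into about 7.5 µL; 0% = neutral wells and 100% = wells with inactivated enzyme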
# Target sequence (P55789 whole entry, looked up): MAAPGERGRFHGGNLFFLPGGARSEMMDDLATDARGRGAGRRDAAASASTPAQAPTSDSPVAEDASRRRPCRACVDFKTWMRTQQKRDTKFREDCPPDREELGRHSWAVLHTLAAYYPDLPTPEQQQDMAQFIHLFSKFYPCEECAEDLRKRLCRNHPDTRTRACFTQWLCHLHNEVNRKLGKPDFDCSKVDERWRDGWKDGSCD
# Vif A3G: HIV-1 Vif–A3G interaction blockers – biochemical, TR-FRET, GST-Vif 1-94, biotin-A3G peptide, dose response retest, primary screen (AID 1117319); TR-FRET GST-Vif / biotin-A3G peptide binding; higher % means a stronger effect; test concentration not given here; strong numbers were not always called active; one-dose inhibition, %; IC50 in µM for titrated hits; 260,000 compounds, 0.57% hits;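 active = above the screen mean plus three standard deviations and confirmed in dose response; inconclusive = results disagree or hit not tested in dose response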;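 also: Vif residues 1-94 fused to GST binding biotinylated APOBEC3G peptide 110-148; 0% = full assay without inhibitor and 100% = GST in place of GST-Vif; retest series ran down from 100 µM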
# rRNA inh HTS OD600: also measured in rRNA inh HTS; calls as there; OD600 change, %; measured here: OD600 growth;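 optical density of the mix in the first replicate; 0 = DMSO median and -100 = no signal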
# rRNA inh HTS RFP: second read-out of rRNA inh HTS, no call of its own (marks repeat the call); RFP signal change, %; measured here: RFP humanized mutant strains;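 first replicate; 0 = DMSO median and -100 = no signal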
# * hit, by the source's call; i = inactive; ? = inconclusive; . = not tested or not shown; & = joins results of further samples. An excerpt, so the mix of outcomes need not match the whole.
SMILES,rRNA inh HTS,rRNA inh HTS OD600,rRNA inh HTS RFP,MLL AF4-AF9 inh,FGF22 binding,E coli growth,HNF4A DNA FP,ALR inh,Vif A3G
COc1cc(/C=C/C(=O)OCC(=O)NCc2ccccc2OC)ccc1O,9,-9,5.8,0.6,.,0.69,-0.2,84*,0%
COc1cccc(N2C(=O)CC(c3c[nH]c4ccccc34)C2=O)c1 (centres undefined),.,.,.,5.0,.,0.76,4.5,-10,-3%
O=S(=O)(N[C@@H]1CC[C@@H](CCn2cc(C3(O)CCCC3)nn2)O[C@H]1CO)c1ccc(Cl)cc1,1,-2,-0.9,-4.0,i,.,.,.,.
OC[C@H]1Nc2ccc(C#Cc3ccc(F)cc3)cc2[C@@H]2[C@H]1CCN2Cc1ccc2c(c1)OCO2,-54,-78,-19,19,i,.,.,.,.
CCCNC(=O)N1CC2(CCN(CC3CC3)CC2)c2c([nH]c3cc(OC)ccc23)[C@H]1CO,7,-14,-4.4,11,i,.,.,.,.
CCCCc1ccc(NC(=O)CSCc2cc(=O)[nH][nH]2)cc1,.,.,.,.,.,0.7,30,79*,14%
COc1ccc(NC(=O)N(C)C[C@H]2Oc3ccc(NC(=O)Nc4ccc(F)cc4)cc3C(=O)N([C@H](C)CO)C[C@@H]2C)cc1,2,4,-0.9,-2.7,i,.,.,.,.
COc1ccccc1NC(=O)N1C[C@H]2[C@@H](c3ccccc31)[C@H](CO)N2C(=O)C1CCCC1,2,-5,-1.4,2.5,i,.,.,.,.
CC(C)NC(=O)N(C)C[C@H]1OCc2cnnn2CCCC(=O)N([C@@H](C)CO)C[C@H]1C,10&2,6&7,-0.1&-1.7,-4.7&0.8,i,.,-2.0,.,1%
C[C@@H]1CN([C@@H](C)CO)S(=O)(=O)c2ccc(-c3ccc(C(=O)N(C)C)cc3)cc2O[C@H]1CN(C)Cc1ccccc1C(=O)O,5,0,-2.4,-12,i,.,.,.,.
O=C(CN1C(=O)NC2(CCCCCC2)C1=O)NCCc1ccccc1,8,10,1.8,-6.5,i,0.7,4.4,.,.
CCc1nnc(NS(=O)(=O)c2ccc(NC(=O)c3ccco3)cc2)s1,3,-2,-4.0,-64,i,0.71,-0.1,-2,0%
Cc1noc(C)c1C(=O)Nc1sc(C)c(-c2ccccc2)c1C#N,.,.,.,.,.,0.62,3.9,7,8%
CCC(C)NS(=O)(=O)c1ccc(NC(=O)C2CCN(C(=O)c3ccco3)CC2)cc1 (centres undefined),1,3,-3.6,1.6,i,0.66,-1.0,.,.
COc1ccccc1NC(=O)N(C)C[C@H]1Oc2ncc(C#CC(C)C)cc2C(=O)N([C@@H](C)CO)C[C@@H]1C,-5,-7,-0.9,-0.1,i,.,.,.,.
O=C(Nc1cccc(NC(=O)c2ccco2)c1)c1ccc2c(c1)OCO2,-31,-16,-11,5.3,i,0.67,-0.5,-3,-4%
CCOC(=O)Cc1csc(NC(=O)CSc2nc(=O)[nH]c3c2CCCC3)n1,4,0,1.6,-0.9,.,0.71,1.0,96*,-29%
CC1=CN2C(=N)/C(=C/c3ccc(Sc4ccc(C)cc4)o3)C(=O)N=C2S1,.,.,.,-2.6,i,0.7,7.2,-2,-1%
CCc1cc2c(-c3ccccc3)cc(=O)oc2cc1OC(=O)c1cccs1,12,8,1.3,-3.0,i,0.69,-3.1,-5,-9%
COc1ccc(C(=O)N2CC=C(c3ccccc3)CC2)cc1S(=O)(=O)N1CCOCC1,.,.,.,.,.,0.74,-2.0,-3,1%
Cc1nc2c3ccccc3nc(NNC(=O)CCC(=O)N3CCN(c4ccc(F)cc4)CC3)n2n1,1,-1,-0.6,1.6,i,0.71,-3.2,90*,.
CC1CCCN(c2ccc(C(=O)Nc3ccc4c(c3)OCO4)cc2[N+](=O)[O-])C1 (centres undefined),.,.,.,.,.,0.76,2.3,-26,-5%
Cn1[nH]c(C(F)(F)F)c(C=NCc2ccc(Cl)cc2)c1=O,10,3,2.3,-0.4,i,0.68,1.1,10,-4%
CCOC(=O)c1cc(-c2ccccc2)nc2c(O)cccc12,-31,-61,-8.8,14,i,.,0.4,.,0%
C[C@@H]1CN([C@@H](C)CO)C(=O)c2cc(NS(=O)(=O)c3cn(C)cn3)ccc2O[C@@H]1CN(C)C(=O)NC1CCCCC1,4,8,-0.4,-3.2,i,.,.,.,.
O=C(c1cnc(Cl)c(Cl)c1)N1CCN(S(=O)(=O)c2cccs2)CC1,2,5,1.0,-0.1,i,.,-0.6,.,-4%
COC(=O)C1(NC(=O)NC23CC4CC(CC(C4)C2)C3)CCCCC1,14,13,0.2,-2.0,i,0.67,-1.1,1,-8%
COc1cccc(C(=O)N/N=C/c2ccc(OC3CSC3)cc2)c1,.,.,.,.,.,.,-1.9,-8,-1%
CC(C)(Oc1ccc(Cl)cc1)C(=O)Nc1ccc(S(=O)(=O)Nc2ncccn2)cc1,1,0,-1.5,0.6,i,0.69,0.4,0,.
COc1cc(NS(=O)(=O)c2ccc(-c3ccc(=O)[nH]n3)o2)cc(OC)c1OC,8,6,-1.0,-6.4,i,0.68,1.9,3,.
C[C@H](CO)N1C[C@H](C)[C@H](CN(C)C(=O)Nc2ccc(C(F)(F)F)cc2)Oc2ncc(C3=CCCC3)cc2C1=O,-3,19,-2.7,-0.5,i,.,.,.,.
O=C(Nc1ccn(-c2ccccc2)n1)c1ccc(Cl)cc1,.,.,.,.,.,0.6,4.4,27,-12%
O=C(C1=C(O)C(=O)N(CC2CCCO2)C1c1ccccc1)c1ccco1 (centres undefined),7,5,-2.1,-24,i,0.71,1.5,-6,.
CCOc1ccc(N(CC(=O)Nc2ccccc2C)S(=O)(=O)c2c(C)noc2C)cc1,-15,-28,-4.7,0.4,i,0.77,0.0,49,?
CC1CCCN(S(=O)(=O)c2ccc(S(=O)(=O)N3CCC4(CC3)OCCO4)cc2)C1 (centres undefined),.,.,.,.,.,0.68,2.2,-5,-1%
CC(=O)NC(=S)NNC(=O)C(c1ccccc1)c1ccccc1,-58,-80,-22,-0.3,i,0.65,3.2,26,1%
Cc1ccc(C)c(NCc2n[nH]c(=S)n2-c2ccccc2)c1,-15,-23,-3.6,-1.6,.,0.68,0.2,86*,11%
CNC(=O)/C(C#N)=C/c1c(N2CCN(C)CC2)nc2c(C)cccn2c1=O,4,0,-0.5,-2.7,i,0.68,0.1,-7,-11%
COc1ccc(OC)c(Nc2ncnc3sc(-c4ccccc4)cc23)c1,.,.,.,.,.,0.69,1.1,-15,.
Cc1[nH]c2ccccc2c(=O)c1CN1CCCCCC1,6,8,6.5,5.5,i,0.64,3.8,-19,-2%
CCc1nnc(NC(=O)CN2CCN(c3cccc(OC)c3)CC2)s1,.,.,.,.,.,0.77,1.1,46,.
Cn1c2c(c(=O)n(C)c1=O)C(NC(=O)c1cccs1)(C(F)(F)F)C(=O)N2 (centres undefined),.,.,.,.,.,0.75,1.4,-1,4%
C[C@@H]1CN([C@@H](C)CO)C(=O)c2cc(/C=C/c3ccccc3)cnc2O[C@H]1CN(C)S(=O)(=O)c1cn(C)cn1,-5,-3,-0.7,5.3,i,.,.,.,.
O=C(CN1C(=O)CSC1=O)c1ccccc1,.,.,.,.,.,0.69,-0.8,.,0%
CC1CN(C(=O)c2ccccc2OCc2ccccc2Cl)CC(C)O1 (centres undefined),-8,0,0.8,-7.0,i,0.68,-2.7,-2,7%
COc1ccccc1C#Cc1cnc2c(c1)C(=O)N([C@@H](C)CO)C[C@H](C)[C@H](CN(C)C(C)=O)O2,3,18,-1.1,-7.6,i,.,.,.,.
CSc1ccc(CN2CCC(Oc3ccc(C(=O)N4CCCC4)cc3)CC2)cc1,11,3,2.2,4.4,i,0.72,-1.2,-1,.
COc1ccc(-c2nnc(SCc3ccccc3)n2N)cc1,.,.,.,.,.,0.66,1.7,-1,-6%
Cc1ccc(S(=O)(=O)N(C)C[C@H]2Oc3ccc(NC(=O)Cn4cnnn4)cc3C(=O)N([C@@H](C)CO)C[C@H]2C)cc1,0,0,0.3,1.9,i,.,.,.,.
N#Cc1ccc(S(=O)(=O)N2CCN(C(=O)[C@@H]3CCCN3C(=O)c3cccs3)CC2)cc1,15,15,0.6,-4.0,i,0.68,0.1,-20,.
# The results go on.
SMILES,rRNA inh HTS,rRNA inh HTS OD600,rRNA inh HTS RFP,MLL AF4-AF9 inh,FGF22 binding,E coli growth,HNF4A DNA FP,ALR inh,Vif A3G
CC(C)(C)NC(=O)NC(=O)CSc1ncc(C(F)(F)F)cc1Cl,-7,-2,1.7,5.6,i,0.73,-1.2,-1,0%
COc1cccc(S(=O)(=O)N(C)C[C@H]2Oc3ncc(C#CCC(C)C)cc3C(=O)N([C@H](C)CO)C[C@@H]2C)c1,-5,-3,1.8,-0.7,i,.,.,.,.
CCCCC(=O)Nc1ccc(NC(=O)c2cnccn2)cn1,8,13,0.6,-0.1,i,0.65,4.6,25,.
O=C(CN1C(=O)CSc2ncccc21)Nc1ccccc1F,13,11,-0.1,-3.1,i,0.64,-2.7,-4,4%
CCCCn1c(N)c(N(CCOC)C(=O)c2cc(S(=O)(=O)N3CCOCC3)ccc2Cl)c(=O)[nH]c1=O,1,3,-2.9,1.1,i,0.69,5.8,.,.
C[C@H]1CN([C@@H](C)CO)C(=O)Cc2cc(NC(=O)C3CC3)ccc2O[C@H]1CN(C)C(=O)Nc1ccc(F)cc1,7,4,0.1,-3.5,i,.,.,.,.
C=CCn1c(=O)c2ccccc2n2c(SCC(=O)Nc3cc(C)on3)nnc12,.,.,.,.,.,0.68,2.6,-10,-6%
CCCNS(=O)(=O)c1ccc(NC(=O)c2cccnc2)cc1,.,.,.,.,.,0.74,-0.9,-4,5%
O=S1(=O)c2cccc3cccc(c23)N1CCBr,-2,-16,-1.7,3.6,i,0.59,2.2,-26,-11%
Cc1oc2cc(O)ccc2c(=O)c1N1C(=O)c2ccccc2C1=O,.,.,.,.,.,0.68,-4.3,12,0%
CCOC(=O)C1=C(CSc2nncn2C)NC(=O)NC1c1cc(OCC)ccc1OCC (centres undefined),.,.,.,.,.,0.79,1.0,-6,2%
OCCC1CN(Cc2cccc(C(F)(F)F)c2)CCN1Cc1ccccc1 (centres undefined),-9,-13,-3.2,1.8,i,0.67,-2.0,-1,10%
CO[C@H]1CN(C)C(=O)c2cc(NC(=O)NC3CCCCC3)ccc2OC[C@@H](C)N(C(C)=O)C[C@H]1C,1,0,-0.8,1.5,i,.,.,.,.

# Full records from above. Order of values: rRNA inh HTS, rRNA inh HTS OD600, rRNA inh HTS RFP, MLL AF4-AF9 inh, FGF22 binding, E coli growth, HNF4A DNA FP, ALR inh, Vif A3G
# Entry for CCCCC(=O)Nc1ccc(NC(=O)c2cnccn2)cn1 : 8, 13, 0.6, -0.1, i, 0.65, 4.6, 25, .
# Entry for CC(C)(C)NC(=O)NC(=O)CSc1ncc(C(F)(F)F)cc1Cl : -7, -2, 1.7, 5.6, i, 0.73, -1.2, -1, 0%
# Entry for COc1cccc(S(=O)(=O)N(C)C[C@H]2Oc3ncc(C#CCC(C)C)cc3C(=O)N([C@H](C)CO)C[C@@H]2C)c1 : -5, -3, 1.8, -0.7, i, ., ., ., .
# Entry for C=CCn1c(=O)c2ccccc2n2c(SCC(=O)Nc3cc(C)on3)nnc12 : ., ., ., ., ., 0.68, 2.6, -10, -6%
# Entry for CO[C@H]1CN(C)C(=O)c2cc(NC(=O)NC3CCCCC3)ccc2OC[C@@H](C)N(C(C)=O)C[C@H]1C : 1, 0, -0.8, 1.5, i, ., ., ., .
